Vif A3G: HIV-1 Vif–A3G interaction blockers – biochemical, TR-FRET, GST-Vif 1-94, biotin-A3G peptide, dose response retest, primary screen (AID 1117319); TR-FRET GST-Vif / biotin-A3G peptide binding; higher % means a stronger effect; test concentration not given here; strong numbers were not always called active; inhibition, %; hits with a dose series show IC50 in µM; hit rate 0.57% among 260,000;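 active means above the screen mean plus three standard deviations and confirmed in dose response; inconclusive means results disagree or hit not tested in dose response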;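 further: Vif residues 1-94 fused to GST binding biotinylated APOBEC3G peptide 110-148; 0% = full assay without inhibitor and 100% = GST in place of GST-Vif; retest series ran down from 100 µM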
MLL AF4-AF9 inh: blocks AF4 peptide binding to human AF9 | inhibition, % at 10 µM | AlphaScreen, biotin-AF4 peptide binding to FLAG-AF9 | P42568 | hit rate 0.47% among 350,000;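 active means every replicate reaching a set inhibition limit, whatever the replicate mean, cut at about 25% in these data; inconclusive means mean inhibition reaches that limit but some replicates miss it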;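 further: 0% = plate neutral control median and 100% = total signal loss; the record names both 10 and 1 µM as test concentration; the first replicate is given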
E coli growth: E. coli growth inhibition; Escherichia coli growth, OD600, 23 h; hits give low values; OD600 absorbance (test concentration not listed); hit rate 0.21% among 330,000;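 active means OD600 absorbance below the run mean of sample wells minus 3.6 SD, in any replicate, cut at about 0.56 in these data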;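 further: stock transfer was 300 nL into about 60 µL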
HNF4A DNA FP: change in binding of human HNF4 alpha to DNA. P41235. AID 1224865. HNF4a-FITC DNA binding, fluorescence polarization, 1 h. hit rate 0.3% among 360,000. activity change, % at 10 µM; in the data active means activity change above about 30%, passing the limit was not always enough;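 further: controls were the assay level and a saturating level of protein; the project sought stronger binding though the title names inhibitors; some compounds called inactive have numbers as strong as hits; positive values seem to mean higher polarization but the record does not say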
Target sequence (P41235 whole entry, looked up): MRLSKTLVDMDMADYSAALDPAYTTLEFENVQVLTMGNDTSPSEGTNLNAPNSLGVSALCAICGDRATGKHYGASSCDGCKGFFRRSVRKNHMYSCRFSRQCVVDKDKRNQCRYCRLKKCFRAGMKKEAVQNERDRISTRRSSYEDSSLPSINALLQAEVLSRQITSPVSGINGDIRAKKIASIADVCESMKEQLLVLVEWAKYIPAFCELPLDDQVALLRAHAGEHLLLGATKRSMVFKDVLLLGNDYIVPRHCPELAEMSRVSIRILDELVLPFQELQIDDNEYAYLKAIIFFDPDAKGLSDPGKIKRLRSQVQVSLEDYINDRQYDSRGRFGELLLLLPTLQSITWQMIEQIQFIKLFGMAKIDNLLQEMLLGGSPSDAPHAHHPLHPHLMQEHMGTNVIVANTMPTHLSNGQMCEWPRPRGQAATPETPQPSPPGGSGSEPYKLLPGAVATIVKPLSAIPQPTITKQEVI
FGF22 binding: FGF22 (human) thermal shift binding; Q9HCT0; recombinant FGF22 thermal shift, SYPRO orange fluorescence; percent of sucrose octasulfate shift, DMSO zero; calls only at 9.99 µM; hit rate 1.5% among 340,000; AID 651658;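 active means melting point raised past a set limit in the mean and every replicate; inconclusive means no clear call; three in four hits are not shown here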
Target sequence (Q9HCT0 whole entry, looked up): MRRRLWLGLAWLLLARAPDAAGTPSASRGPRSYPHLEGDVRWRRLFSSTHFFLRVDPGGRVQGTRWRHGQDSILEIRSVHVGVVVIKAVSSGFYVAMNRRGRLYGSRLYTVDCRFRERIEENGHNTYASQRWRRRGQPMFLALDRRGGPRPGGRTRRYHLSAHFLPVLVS
rRNA inh HTS: inhibits bacterial ribosomal RNA function over humanized ribosomes; E. coli WT GFP vs humanized-ribosome RFP mutants, fluorescence, 24 h; hits give low values; DMSO median 0, no signal -100; GFP signal change (wild-type ribosome), % (concentration not given with the values); hit rate 1.6% among 350,000;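 active means significant combined selectivity score with lowered wild-type GFP, culture density cut under 30%, mutant RFP and density less affected; inactive means any of these conditions unmet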; further: one replicate is shown; some compounds called inactive have numbers as strong as hits
ALR H2O2 inh: inhibitors of human sulfhydryl oxidase ALR; P55789; purified ALR, DTT oxidation, H2O2 HRP-luminol luminescence; inhibition, % (test concentration not listed); hit rate 3.8% among 290,000;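 active means mean and each replicate at 75% or more; inconclusive means only one of the two met; inactive means neither met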;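 further: stock transfer was 7.5 nL into about 7.5 µL; 0% = neutral wells and 100% = wells with inactivated enzyme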
Target sequence (P55789 whole entry, looked up): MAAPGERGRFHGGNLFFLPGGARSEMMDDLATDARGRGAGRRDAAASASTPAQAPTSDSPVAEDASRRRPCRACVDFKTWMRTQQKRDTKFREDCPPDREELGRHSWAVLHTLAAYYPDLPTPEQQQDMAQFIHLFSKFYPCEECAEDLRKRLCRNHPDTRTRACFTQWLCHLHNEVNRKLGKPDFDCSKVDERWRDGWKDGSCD
rRNA inh HTS OD600: second read-out of rRNA inh HTS, no call of its own (marks repeat the call); OD600 change, %; measured here: OD600 growth;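 optical density of the mix in the first replicate; 0 = DMSO median and -100 = no signal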
rRNA inh HTS RFP: also measured in rRNA inh HTS; calls as there; RFP signal change, %; measured here: RFP humanized mutant strains;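 first replicate; 0 = DMSO median and -100 = no signal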
The depositor's hits bear a star; i = inactive; ? = inconclusive; / = not tested or not shown; & = joins results of further samples. This is a subset; rates above refer to the full screens.

Start of the data: the first five entries, ahead of the listing:
SMILES	Vif A3G	MLL AF4-AF9 inh	E coli growth	HNF4A DNA FP	FGF22 binding	rRNA inh HTS	rRNA inh HTS OD600	rRNA inh HTS RFP	ALR H2O2 inh
Cc1ccc([C@H]2C[C@H](n3cc(-c4ccc(F)cc4)nn3)[C@@H](O)CN2C(=O)c2cccs2)cc1	-1%	-2.0	/	-9.2	i	-8	0	-1.7	/
C[C@@H]1CCCCO[C@H](CN(C)S(=O)(=O)c2ccc(F)cc2)[C@@H](C)CN([C@H](C)CO)C(=O)c2cc(NC(=O)Nc3ccc(C(F)(F)F)cc3)ccc2O1	4%	-3.0&-2.0	/	0.3	i	17&1	10&-2	2.5&-4.6	/
Cc1cccc(S(=O)(=O)N2C[C@@H]3[C@H](c4ccccc42)[C@@H](CO)N3C(=O)c2ccccc2)c1	/	-2.1	/	/	i	-5	-16	5.6	/
COC(=O)[C@]12CCCCC=C1N(Cc1ccc(Cl)cc1Cl)C(=O)[C@H](CC(=O)NCCC(C)C)C2	/	-1.8	/	-1.4	i	17	13	3.6	/
Cc1ccc(S(=O)(=O)N2CCN=C2SCc2cccnc2)cc1	-2%	-7.5	0.69	-1.8	i	9	4	2.3	98*

Main list, from the first entry:
SMILES	Vif A3G	MLL AF4-AF9 inh	E coli growth	HNF4A DNA FP	FGF22 binding	rRNA inh HTS	rRNA inh HTS OD600	rRNA inh HTS RFP	ALR H2O2 inh
Cc1ccc([C@H]2C[C@H](n3cc(-c4ccc(F)cc4)nn3)[C@@H](O)CN2C(=O)c2cccs2)cc1	-1%	-2.0	/	-9.2	i	-8	0	-1.7	/
C[C@@H]1CCCCO[C@H](CN(C)S(=O)(=O)c2ccc(F)cc2)[C@@H](C)CN([C@H](C)CO)C(=O)c2cc(NC(=O)Nc3ccc(C(F)(F)F)cc3)ccc2O1	4%	-3.0&-2.0	/	0.3	i	17&1	10&-2	2.5&-4.6	/
Cc1cccc(S(=O)(=O)N2C[C@@H]3[C@H](c4ccccc42)[C@@H](CO)N3C(=O)c2ccccc2)c1	/	-2.1	/	/	i	-5	-16	5.6	/
COC(=O)[C@]12CCCCC=C1N(Cc1ccc(Cl)cc1Cl)C(=O)[C@H](CC(=O)NCCC(C)C)C2	/	-1.8	/	-1.4	i	17	13	3.6	/
Cc1ccc(S(=O)(=O)N2CCN=C2SCc2cccnc2)cc1	-2%	-7.5	0.69	-1.8	i	9	4	2.3	98*
Cc1ccccc1NC(=O)NC1CCCc2ccccc21 (configuration not stated)	-4%	-0.1	0.72	5.6	i	5	6	3.4	-5
O=C(CCNS(=O)(=O)c1ccc2[nH]c(=O)oc2c1)NCc1ccccc1	/	-1.3	0.66	2.3	i	11	4	-2.4	-4
COCC(=O)N1CC2(C1)CN(Cc1ccccc1Cl)[C@H](CO)c1[nH]c3cc(OC)ccc3c12	/	-5.6	/	/	i	-6	-8	-1.5	/
O=C(CSC1=NCCS1)N1N=C(c2cccs2)CC1c1ccc(F)cc1 (configuration not stated)	-7%	5.5	/	2.6	i	-1	-7	-2.7	/
CC(C)(C)NC(=O)C1CCC(C)(C(=O)O)C1(C)C (configuration not stated)	4%	/	0.7	1.5	/	/	/	/	0
CSc1nc(N)nc(SCC(=O)C23CC4CC(CC(C4)C2)C3)c1C#N	12%	/	0.75	2.5	/	/	/	/	-2
Cc1[nH]c(=O)n(C(C)C)c(=O)c1Br	5%	-0.5	0.65	-6.0	i	8	18	1.1	/
CCOC(=O)c1sc(NC(=O)Cc2ccc(C)cc2)nc1C	4%	1.3	0.68	-6.3	i	/	/	/	-1
C[C@@H]1CN([C@@H](C)CO)C(=O)c2cc(NC(=O)Nc3ccccc3)ccc2O[C@H]1CN(C)C(=O)Nc1ccc(F)cc1	/	-2.3	/	/	i	7	9	0.4	/
COc1cccc(C(=O)N2CCN(C(=O)Cc3ccccc3)CC2)c1	-2%	-2.9	0.68	-0.9	i	11	12	-1.5	3
COc1cccc(C(=O)Nc2cccc(-c3nnc(-c4ccccc4)o3)c2)c1	/	-9.8	0.72	7.7	i	16	4	1.7	6
Cc1noc(C)c1C(=O)Nc1nc(-c2ccc([N+](=O)[O-])cc2)cs1	/	-0.8	0.75	-0.6	i	6	7	1.7	-13
CN(C)CCNc1oc(COc2ccc(-c3ccccc3)cc2)nc1C#N	3%	?	0.64	1.4	i	-36*	-22*	-5.2*	47
O=C(CNC(=O)c1cc(S(=O)(=O)N2CCOCC2)ccc1N1CCCC1)Nc1ccc(F)c(F)c1	/	3.7	0.65	-1.6	i	-3	1	0.1	/
COc1ccc(-c2cc(NC=O)c3ncc(-c4ccc(OC)c(OC)c4)n3c2)cc1	/	3.7	/	18	i	3	-2	2.8	/
C/C(=N\O)C(C)NC(=O)c1ccccc1 (configuration not stated)	/	0.5	/	-2.2	i	33	17	4.7	0
O=C(CCC1CCCCC1)N1CCN(Cc2ccc3c(c2)OCO3)CC1	-1%	/	0.69	1.4	/	/	/	/	-19
COc1cc(/C=N/NC(=O)c2cccc(S(=O)(=O)N3CCCC3)c2)cc(OC)c1O	7%	1.1	/	0.4	i	5	0	-1.6	99*
O=C(C[C@@H]1CC[C@H](NC(=O)NC2CCCCC2)[C@@H](CO)O1)NCc1ccc(F)cc1	/	1.8	/	/	i	2	5	-1.5	/
C[C@H]1CN([C@@H](C)CO)S(=O)(=O)c2ccc(-c3cccc(F)c3)cc2O[C@@H]1CN(C)C(=O)Nc1cc(F)ccc1F	/	1.7	/	/	i	-3	-5	1.9	/
Cc1cc(Cl)ccc1C(=O)C1CCCN(C(=O)c2cc(C(C)C)no2)C1 (configuration not stated)	/	-1.4	0.67	18	i	-37*	-26*	-4.6*	1
Cn1c(=O)[nH]c(=O)c2c1nc(SCCO)n2CCCc1ccccc1	-8%	-5.4	0.67	-0.6	i	18	3	0.6	-10
CC(=O)N(C[C@H]1N[C@H](CO)[C@@H]1c1ccccc1)C(C)C	/	-3.3	/	/	i	1	-9	-1.6	/
CN(C)c1nccc(Nc2ccccc2)c1C#N	19%	/	0.73	-2.2	/	/	/	/	-4
CCOc1ccc(NC(=O)CN2C(=O)NC(C)(c3ccc(OC(F)F)cc3)C2=O)cc1 (configuration not stated)	/	-1.6	/	-2.8	i	-7	4	2.1	-2
CCC1C(=O)N(C)CCc2ccccc21 (configuration not stated)	-2%	/	0.7	-1.4	/	/	/	/	-14
Cn1nc(C(F)(F)F)cc1C(=O)Nc1ccc(-c2ccno2)cc1	/	-2.4	0.62	-1.4	i	0	0	-0.4	-1
COc1ccccc1N1CCN(C(=O)c2sc3nc(-c4ccc(F)cc4)cn3c2C)CC1	3%	4.5	0.76	0.1	i	-4	-22	6.3	-5
Cc1ccc(C(=O)NC2CC3CCCC(C2)N3C(=S)NCc2ccco2)cc1 (configuration not stated)	2%	0.4	0.67	2.2	i	-3	2	6.1	-6
O=C(N/N=C/c1cc2c(cc1Cl)OCO2)c1ccc2c(c1)OCCO2	4%	0.0	/	-2.3	i	/	/	/	-7
O=C(CSc1nnc(-c2ccco2)n1CC1CCCO1)NC1CCCC1 (configuration not stated)	0%	/	0.64	-1.3	/	/	/	/	-5
COc1cccc(S(=O)(=O)Nc2ccc3c(c2)C(=O)N(C)C[C@H](OC)[C@@H](C)CN(Cc2ccccc2F)[C@@H](C)CO3)c1	/	-1.1	/	/	i	-3	-1	4.5	/
Cc1ccc(/C=C(\C#N)C(=O)Nc2cccc(C)n2)cc1	2%	0.3	0.67	3.1	i	-16	-8	-1.5	-2
C[C@@H]1CN([C@@H](C)CO)C(=O)c2cc(C#CCc3ccccc3)cnc2O[C@@H]1CN(C)C(=O)C1CCC1	/	-0.3	/	/	i	4	13	-2.3	/
COc1ccc([N+](=O)[O-])cc1NC(=O)C1CCCCC1C(=O)O (configuration not stated)	1%	1.1	0.68	-2.0	i	14	-1	0.7	-3
CN(C(=O)c1ccccc1C(=O)OCC(=O)Nc1ccc(OC(F)F)cc1)c1ccccc1	-14%	1.5	0.67	-1.4	i	-14	-26	3.4	-1
Cc1cccc2c1N(C)C(=O)C2=O	/	0.4	0.67	3.1	/	10	10	-1.5	3
COC/C=C/C1=CC2=CC(=O)C(C)(OC(=O)c3cnc4ccccc4n3)C(=O)C2=CN1CCCOC(C)C (configuration not stated)	/	2.2	/	-0.1	i	4	2	0.8	-33
CCC1(C)Cc2sc3c(=O)[nH]c(=S)[nH]c3c2CO1 (configuration not stated)	4%	-3.3	0.7	0.5	/	2	-9	-0.9	3
COC(=O)c1sccc1NC(=S)N1CCN(c2ccccc2)CC1	-70%	/	0.69	-1.3	/	/	/	/	-1
N#Cc1c(N)nc(SCC(=O)NCCc2ccccc2)c(C#N)c1-c1cccs1	-12%&-24%	/	0.8	0.5	/	/	/	/	-26
CN1/C(=C\C=C(/C#N)C(=O)Nc2ccccc2F)C(C)(C)c2ccccc21	1%	/	0.73	102	/	/	/	/	-16
Cc1ccc(O)c(C(=O)c2cnn(-c3ccccc3)c2)c1	-5%	/	0.7	2.8	/	/	/	/	-3
CCCn1c(=O)c2ccccc2n2c(SCCNCCO)nnc12	-10%	27*	0.61	2.7	i	7	2	0.1	/
Cc1ccc(NC(=O)c2cc3ccccc3o2)cc1Cl	/	-2.2	0.66	-3.5	i	-22	-37	-4.7	-1
C[C@@H]1CN([C@@H](C)CO)C(=O)Cc2cc(NS(=O)(=O)c3ccc(Cl)cc3)ccc2O[C@H]1CN(C)S(=O)(=O)c1ccc(Cl)cc1	/	-1.5	/	/	i	-5	-4	-0.3	/
COc1ccc(CCNC(=O)C(=O)NCC2OCCN2S(=O)(=O)c2cc(F)ccc2F)cc1 (configuration not stated)	/	4.4	0.81	9.0	i	-2	-4	-4.2	/
COC(=O)c1c(N2C(=O)CC(Sc3ncccc3C(=O)O)C2=O)sc(C)c1C (configuration not stated)	?	2.2	0.67	-5.3	i	-5	-4	2.2	3
Cc1cccc(OCCCCCNCCO)c1	/	/	0.74	-1.4	/	/	/	/	24
COCCN(Cc1cc2cc3c(cc2nc1Cl)OCO3)C(=O)Nc1ccccc1OC	-20%	/	0.67	5.5	/	/	/	/	/
COc1ccccc1C(=O)N=C1NC(=O)CC2C(=O)NCCN12 (configuration not stated)	/	-7.0	0.7	-2.2	i	15	13	-5.3	-3
Cc1ccc2c(c1)N(Cc1ccccn1)C(=O)C(C)O2 (configuration not stated)	12%	/	0.61	-4.1	/	6	7	0.9	-1
COc1ccc(CNC(=O)C[C@H]2CC[C@@H](NS(=O)(=O)c3cccc(OC)c3)[C@@H](CO)O2)cc1	/	-1.8	/	/	i	-2	0	-0.1	/
COC(=O)C1CCN(CCCOc2ccc(CN3CCN(c4ccc([N+](=O)[O-])cc4)CC3)cc2)CC1	/	14	/	-1.4	i	-23	-38	0.6	2
CC1=C(C)CC2(SC1)C(=O)N(c1ccccc1)N=C2N (configuration not stated)	5%	-3.9	0.7	-4.0	i	-6	-5	-2.7	94*

Other compounds
SMILES	Vif A3G	MLL AF4-AF9 inh	E coli growth	HNF4A DNA FP	FGF22 binding	rRNA inh HTS	rRNA inh HTS OD600	rRNA inh HTS RFP	ALR H2O2 inh
CCN(CC)S(=O)(=O)c1ccc(N2CCCC2)c(NC(=O)Cc2ccc(OC)cc2)c1	-5%	6.0	/	-4.3	i	-34*	-22*	5.2*	-1
CCNC(=O)CN(c1ccc(Oc2ccccc2)cc1)S(=O)(=O)c1ccccc1	-10%	-1.0	0.65	-2.0	i	5	4	-0.7	-7
O=C(COC(=O)c1cccc([N+](=O)[O-])c1)NCC1CCCO1 (configuration not stated)	8%	/	0.69	-1.8	/	/	/	/	-3
C=CCn1c(CSc2nc3ccccc3s2)nnc1SCC(=O)OCC	-5%	/	0.71	1.3	/	/	/	/	/
Cn1c(CCC(=O)OCC(=O)Nc2ccc(Oc3ccccc3)cc2)nc(=O)c2ccccc21	8%	-0.6	0.67	2.2	i	12	11	2.1	-3

Screening results from PubChem.
